# Screening data: PubChem BioAssay, several laboratories
# PABP polyA inh: PABP poly(A) RNA binding inhibitors, primary screen, biochemical, fluorescence polarization, uHTS; Polyadenylate-binding protein 1 (Homo sapiens), P11940; inhibition, % at 35 µM; 290,000 compounds, 1% hits; AID 2014, 2009;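 active = 50% or more with normal probe brightness, or confirmed in later tests; inconclusive = above 50% with abnormal brightness, or retests that disagree; inactive = below 50% or failed in later tests; about a fifth of its hits are not listed in these tables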;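 also: calls also rest on retests at 20 µM and on dose response follow-up; controls were probe without protein and protein plus probe with vehicle; some compounds called inactive have numbers as strong as hits; many hits fall short of the cut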
# Target sequence (P11940 whole entry, looked up): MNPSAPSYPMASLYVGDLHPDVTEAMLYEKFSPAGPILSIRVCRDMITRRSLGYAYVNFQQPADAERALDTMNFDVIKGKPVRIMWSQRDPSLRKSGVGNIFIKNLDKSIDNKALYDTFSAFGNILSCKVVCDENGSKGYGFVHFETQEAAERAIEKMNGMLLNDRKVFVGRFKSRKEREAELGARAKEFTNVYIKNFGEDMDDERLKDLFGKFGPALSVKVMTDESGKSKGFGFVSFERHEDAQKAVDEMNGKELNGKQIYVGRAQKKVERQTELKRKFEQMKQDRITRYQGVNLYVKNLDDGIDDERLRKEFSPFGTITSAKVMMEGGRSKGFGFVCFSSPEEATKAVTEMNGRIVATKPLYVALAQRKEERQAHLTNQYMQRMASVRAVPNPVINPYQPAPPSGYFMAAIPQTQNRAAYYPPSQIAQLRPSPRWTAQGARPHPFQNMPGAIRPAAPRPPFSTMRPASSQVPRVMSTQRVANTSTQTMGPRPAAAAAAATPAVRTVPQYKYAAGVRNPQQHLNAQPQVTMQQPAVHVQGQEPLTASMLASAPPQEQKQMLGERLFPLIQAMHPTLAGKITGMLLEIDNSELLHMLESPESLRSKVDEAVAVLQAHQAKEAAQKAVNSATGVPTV
# HIV Env fusion: inhibitors of HIV-1 Env-driven cell-cell fusion, primary screen, HeLa-JRFL effector, CEM21 target cells, luciferase. inhibition, % at 12.3 µM. 360,000 compounds, 1.1% hits;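 active = mean replicate inhibition score of at least 50 and every replicate individually at or above 50; inconclusive = only one of the two criteria met; inactive = mean below 50 and not all replicates reaching 50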;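 also: 0% = plate neutral controls and 100% = maraviroc near 300 nM; one replicate is shown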
# MT1-MMP act inh: blockers of MT1-MMP proenzyme processing, primary screen, HT1080 RFP-PRO-GFP cells, GFP/RFP fluorescence | GFP/RFP ratio change, % at 20 µM | 360,000 compounds, 0.061% hits | GFP/RFP ratio fluorescence, overnight; percent of plate control window, DMSO zero;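 active = GFP/RFP ratio change of at least 30% with cell ATP level not reduced by more than half and red fluorescence within 50% of control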; also: strong numbers were not always called active
#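 Assay system: HT1080 cells carrying an RFP-PRO-GFP reporter | Dosing: Single dose of 20 µM compound, 1% DMSO final | Incubation: Cells overnight before dosing, compound overnight, 37 °C, 5% CO2 | Evaluation: GFP/RFP fluorescence ratio | Control set: DMSO and RFP-L50D-GFP cell wells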
# Rce1 inh: yeast Rce1p protease inhibitors, primary screen, biochemical, fluorescence, cell-free homogeneous; calls only; yeast membranes, quenched prenylated peptide cleavage fluorescence; CAAX prenyl protease 2 (Saccharomyces cerevisiae (strain ATCC 204508 / S288c)), Q03530; 290,000 compounds, 0.27% hits; AID 2563, 2010;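 active = fall in fluorescence gain of 50% or more versus controls, with final raw signal at or below 3038400; inconclusive = same 50% fall but final raw signal above 3038400; inactive = fall in fluorescence gain under 50%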;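 also: plate controls were neutral control wells for no effect and wells lacking membranes for full effect; tested at 10 µM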
# Target sequence (Q03530 whole entry, looked up): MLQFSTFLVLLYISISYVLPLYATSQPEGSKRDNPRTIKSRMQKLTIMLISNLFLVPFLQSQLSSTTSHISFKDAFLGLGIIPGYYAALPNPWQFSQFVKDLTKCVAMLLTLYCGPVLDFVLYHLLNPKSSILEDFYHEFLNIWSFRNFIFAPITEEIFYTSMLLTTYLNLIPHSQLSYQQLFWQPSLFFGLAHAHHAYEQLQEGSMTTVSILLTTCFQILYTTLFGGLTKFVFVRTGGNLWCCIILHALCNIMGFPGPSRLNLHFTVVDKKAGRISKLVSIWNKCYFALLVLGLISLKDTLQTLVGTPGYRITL
# eIF4H inh: human eIF4H binding inhibitors, primary screen, translation initiation inhibitor project, biochemical, uHTS, fluorescence polarization; 290,000 compounds, 0.94% hits; AID 2012, 2009; eIF4H fluorescence polarization binding assay; inhibition, % at 35 µM; Eukaryotic translation initiation factor 4H (Homo sapiens), Q15056;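 active = 50% or more with normal probe brightness, or confirmed in later tests; inconclusive = above 50% with abnormal brightness, or retests that disagree; inactive = below 50% or failed in later tests; about a fifth of its hits are not listed in these tables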;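 also: calls also rest on retests at 20 µM and on dose response follow-up; 0% = protein and probe with vehicle and 100% = probe without protein; strong numbers were not always called active; many hits fall short of the cut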
# CSC inhib: cancer stem cell viability inhibitors, primary screen, luminescence; cancer stem cell-like cells viability; inhibition, % at 7.5 µM; 300,000 compounds, 1.1% hits; AID 2717, 2010;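 active = mean at 75% or more and at least half the replicates too; inconclusive = mean and replicates disagree; tested in HMLE shEcad cells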;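 also: 0% = median of negative and 100% = median of positive control wells; the first replicate is given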
# Yeast UUG start: modulators of yeast start codon fidelity, primary screen, whole organism, S. cerevisiae, single point, plate reader | activity score, % at 18.7 µM | S. cerevisiae UUG-firefly luciferase reporter, luminescence/redox ratio | 350,000 compounds, 0.13% hits;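 active = replicate mean at a twofold rise or more, about +100% in these data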;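 also: firefly luciferase made from a UUG start codon reports start codon fidelity; reporter light over untreated wells divided by growth signal over untreated wells; some hits fall short of that in this replicate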
# eIF4H inh retest: second read-out of eIF4H inh, no call of its own (marks repeat the call); inhibition, %; compound at 20 µM; confirmation average;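 mean of two retest wells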
# PABP polyA inh retest: second read-out of PABP polyA inh, no call of its own (marks repeat the call); inhibition, %; compound at 20 µM; confirmation repeats;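 mean of two retest wells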
# MT1-MMP act inh RFP: also measured in MT1-MMP act inh; calls as there; RFP signal change, %; measured here: RFP expression control read;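 0 = vehicle wells; hits needed this value within 50% of zero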
# * = called active by the depositor; i = inactive; ? = inconclusive; . = no result given; & = joins results of further samples. Not all compounds are listed. The share of hits here may be higher or lower than overall.
SMILES,PABP polyA inh,HIV Env fusion,MT1-MMP act inh,MT1-MMP act inh RFP,Rce1 inh,eIF4H inh,CSC inhib,Yeast UUG start,others
O=C1Nc2ccc(Br)cc2C(c2ccccc2Cl)=NC1O (stereo not drawn),9.2,.,2.8,5.2,i,4.3,-8.8,-11.6,
O=c1[nH]c(=S)n(Cc2ccco2)c(O)c1C=NCc1cccs1,33.7*,-37.9,-3.7,-2.7,i,52.7*,5.4,-1.5,eIF4H inh retest=70.8*;PABP polyA inh retest=70.9*
CCOCCCN=Cc1c(O)n(Cc2ccccc2)c(=O)[nH]c1=O,-8.7,.,-0.1,0.2,i,-2.1,-7.5,-9.0,
O=C1NC(=O)C(=Cc2cccs2)C(=O)N1,.,0.1,4.6,3.5,.,.,.,-10.8,
Cc1ccc(N=Cc2c(O)n(-c3ccc(C)cc3)c(=O)[nH]c2=O)cc1,.,-24.6,-1.2,0.5,i,.,-9.2,-20.4,
COC(=O)CSC1=NN1c1cc(C)nc(N)n1,4.9,6.5,-0.1,2.7,i,-9.8,-7.3,-17.1,
Cc1cc(OCC(=O)N2CCC(C(=O)O)(c3ccccc3)CC2)c2c(C)cc(=O)oc2c1,3.9,.,-0.9,2.6,.,-2.8,10.5,-14.5,
O=C(c1cc2nc(-c3ccccc3)cc(-c3ccccc3)n2n1)N1CCC2(CC1)OCCO2,0.7,.,-5.6,-3.6,i,4.6,-4.2,4.5,
CN1C(=O)NC(=O)C2(Cc3ccccc3N3CCOCC32)C1=O (stereo not drawn),3.5,12.6,0.2,2.0,i,3.4,-12.4,.,
CN(C(=O)Oc1ccc(C(=O)c2ccc(Cl)cc2)cc1)c1ccccc1,5.2,-1.8,1.8,-1.0,i,-3.1,16.4,.,

# Brought forward from above: 2 compounds, then new ones.
SMILES,PABP polyA inh,HIV Env fusion,MT1-MMP act inh,MT1-MMP act inh RFP,Rce1 inh,eIF4H inh,CSC inhib,Yeast UUG start,others
CN1C(=O)NC(=O)C2(Cc3ccccc3N3CCOCC32)C1=O (stereo not drawn),3.5,12.6,0.2,2.0,i,3.4,-12.4,.,
CN(C(=O)Oc1ccc(C(=O)c2ccc(Cl)cc2)cc1)c1ccccc1,5.2,-1.8,1.8,-1.0,i,-3.1,16.4,.,
Cc1cccc(CNCCc2ccccc2)n1,-1.1,.,2.2,1.6,i,-2.7,-19.1,-14.5,
CCOC(=O)CC1c2ccccc2-n2nncc2CN1C (stereo not drawn),.,-5.3,2.7,3.3,.,.,.,-4.5,
Cc1cccc(CS(=O)(=O)Cc2ccc(C(=O)N3CCC4(CC3)OCCO4)o2)c1,-0.7,.,1.1,2.6,i,-4.6,-20.7,-17.0,
O=C(Cc1ccccc1)Oc1cccc(N2C(=O)CCC2=O)c1,3.6,.,1.7,8.6,i,-2.5,-4.9,-7.9,
CC12CN3CC(C)(CN(C1)C3c1cccnc1)C2=O (stereo not drawn),-11.8,.,-1.2,1.8,i,6.5,-13.7,-20.6,
O=c1[nH]c(=O)n(Cc2ccc(F)cc2)c(O)c1C=NCCCN1CCOCC1,-5.7,-13.9,2.3,1.9,i,-3.5,-1.6,-12.6,
COc1ccc2[nH]c3c(c2c1)CCNC3C (stereo not drawn),1.1,3.7,1.0,0.8,i,-9.4,-7.1,-3.5,
Cc1cc(/C=C2/C(=O)NC(=O)N(c3ccc(Br)cc3)C2=O)c(C)n1C,5.6,15.6,-6.4,4.0,i,17.3,-13.7,-8.2,
O=C(COc1ccc(Cl)cc1Cl)N1CCN(C/C=C/c2ccccc2)CC1,6.1,?,-4.7,-5.0,i,-5.4,11.4,3.6,
Cc1ccc(C[n+]2c(-c3ccc(C)cc3)cc(-c3ccc(C)cc3)cc2-c2ccc(C)cc2)cc1,.,.,-35.0,-37.5,i,.,-4.9,-12.3,
O=C1CN=C(c2ccc[nH]2)c2cc(Cl)ccc2N1,7.3,31.4,-2.2,-1.7,i,-7.1,11.2,-16.1,
CCCCn1c(O)c(C(C)=NCCCn2ccnc2)c(=O)[nH]c1=O,4.7,-2.3,-0.6,9.2,i,0.6,-11.7,-12.1,
Cc1ccc(C(C)C)c(OCC#CCN2CCCC2)c1,-20.8,8.4,0.0,1.5,i,3.4,-13.0,-22.2,
CCOC(=O)C1=C(N)Oc2cc(C)oc(=O)c2C12C(=O)N1c3c(cc(OC)cc32)C(C)=CC1(C)C (stereo not drawn),5.9,-14.8,4.4,4.1,i,-5.3,-12.6,2.9,
O=c1[nH]c(=S)[nH]c(O)c1CN1CCCCC1,2.8,.,14.0,10.3,i,6.5,-11.9,-16.7,
c1ccc2c(N3CCNCC3)nsc2c1,0.4,10.7,9.8,2.4,i,-11.5,13.1,.,
CC(c1ccccc1)n1cncc1C(=O)N1CCCC1=O (stereo not drawn),28.7,52.3,3.5,6.9,i,-8.8,-7.0,-3.2,
Cc1ccsc1C(=O)C1CCCN(Cc2c(C)nn(C(C)C)c2C)C1 (stereo not drawn),2.0,20.8,-12.5,-8.5,i,5.6,.,-14.8,
c1ccc2c(NC3=NCCS3)cccc2c1,16.9,.,0.8,2.8,i,5.2,-4.5,-25.3,
C[C@]12CC[C@H](O)CC1=CCC1C2CC[C@@]2(C)C1C[C@@H](O)[C@@H]2O (stereo partly drawn),.,18.8,0.5,1.1,.,.,-15.8,1.5,
COc1cc(OC)c(OC)cc1CNCCc1ccc(F)cc1,-0.3,15.6,-2.3,-2.5,i,10.3,-9.1,-16.8,
CC(C)C(=O)N1CCN(CCN=Cc2c(O)n(C)c(=O)n(C)c2=O)CC1,-4.5,-78.4,-4.0,0.6,i,-0.6,-14.4,-11.1,
CN(CC#CCN1CCCC1)C(=O)c1cccc(Cl)c1,.,-12.8,2.7,0.6,i,.,-3.1,-18.8,
CN(C)CC#CCC(O)(c1ccccc1)C1CCCC1 (stereo not drawn),4.6,-31.8,-1.4,-0.7,i,-8.0,1.1,-3.7,
CC(=O)C1(c2ccccc2)CCNCC1,3.9,.,-12.4,-1.1,i,-12.1,-6.7,9.8,
COc1ccc2nc(NC3=NCCN3)sc2c1,-2.2,.,9.8,5.7,i,-3.3,3.8,-11.6,
CC(=O)c1cn(Cc2ccccc2C#N)c2ccccc12,4.7,2.3,-7.2,-28.2,i,4.6,.,.,
Cc1ccccc1-n1c(O)c(/C=N/c2nccs2)c(=O)[nH]c1=O,-1.2&0.3,-1.9&-8.9,-9.2&-0.2,2.6&5.9,i,30.6&64.3,5.4,-24.1&-18.4,eIF4H inh retest=0.6;PABP polyA inh retest=-0.6
CCCCSP1(=S)NCCCO1 (stereo not drawn),-9.3,.,2.7,3.0,i,-6.6,0.8,-2.6,
O=c1[nH]c(=O)n(CCC2=CCCCC2)c(O)c1C=Nc1cccc(F)c1,?,-1.0,-32.1,5.2,i,?,-10.5,-11.9,
CN1C(=O)NC(=O)/C(=C/c2ccc([N+](=O)[O-])s2)C1=O,37.5*,0.0,-1.9,12.6,i,63.7*,0.2,0.7,eIF4H inh retest=58.8*;PABP polyA inh retest=58.5*
CC(C)c1cccc(C(C)C)c1OCCn1ccnc1,14.6,.,-1.0,-0.3,i,10.0,4.9,-18.9,
COC(=O)C1=C(c2cc3ccccc3o2)C[C@@H]2CC[C@H]1N2C(=O)N1CCC(O)CC1,.,3.6,2.4,-0.9,i,.,-6.1,8.4,
COC(=O)C1=C(c2ccc(OC(F)(F)F)cc2)C[C@@H]2CC[C@H]1N2C(=O)NC1CC1,.,-4.3,3.7,-7.0,.,.,-11.1,0.6,
O=C(N/N=C/c1c(O)n(CCc2ccc(F)cc2)c(=O)[nH]c1=O)c1ccccc1,-20.0,-7.4,-8.1,-0.2,i,8.1,-2.8,-24.3,
O=C(C(=O)N1CCOCC1)c1cn(Cc2ccc(F)cc2)c2ccccc12,2.4,12.4,-0.7,-0.1,i,-9.4,-5.7,-7.7,
COC(=O)C1=C(c2ccc(OC)c(OC)c2)C[C@@H]2CC[C@H]1N2C(=O)NCCCOC(C)C,.,16.2,-1.7,1.5,.,.,-15.3,-5.5,
Cc1csc(NC(=O)C(Cl)c2ccccc2)n1 (stereo not drawn) (tested in a mixture with another compound),.,1.7,-1.8,1.5,i,.,0.7,-13.6,
O=c1[nH]c(=O)n(-c2ccccc2)c(O)c1N=Nc1ccc(Br)cc1,85.3,2.7,10.1,0.3,i,2.1*,16.1,-2.8,eIF4H inh retest=67.7*;PABP polyA inh retest=44.9
COc1ccc(C(CNC(=O)c2ccc3c(c2)CCC3)N(C)C)cc1 (stereo not drawn),5.4,-2.8,-3.5,3.4,i,-1.8,4.5,-5.8,
O=C(CCn1nc(-c2ccc(Cl)cc2)ccc1=O)N1CCC2(CC1)OCCO2,-10.1,1.1,1.0,-3.6,i,0.9,-4.2,-0.1,
Cc1ccc(OCC(=O)N2CCN(CC3CC4C=CC3C4)CC2)cc1 (stereo not drawn),13.4,.,0.2,1.6,i,-6.3,9.2,6.7,
Cc1ccc(C2CC(=O)C(C=NCCN3CCN(C(=O)Cc4ccccc4)CC3)=C(O)C2)cc1 (stereo not drawn),-7.8,-5.6,2.2,3.0,i,-3.5,-15.5,-27.8,
Cc1ccc(-c2cc(-c3ccc(C)cc3)[n+](-c3ccc(C(=O)O)cc3)c(-c3ccc(C)cc3)c2)cc1,.,?,-0.3,2.6,i,.,-7.1,10.7,
Cc1c(N=Cc2c(O)n(Cc3ccco3)c(=O)[nH]c2=O)c(=O)n(-c2ccccc2)n1C,33.1,.,-3.8,1.2,i,36.6,-8.7,0.8,
CC(=O)N(C1=NCCCS1)c1ccc(Cl)cc1,-6.4,-17.8,-2.2,-3.3,i,3.2,-32.1,.,
O=c1[nH]c(=S)[nH]c(O)c1N=Nc1ccc(S(=O)(=O)N2CCOCC2)cc1,17.3,1.1,4.5,2.4,i,25.2,-19.6,.,
Cc1cccc(NC(=O)C(C)N2CC=C(c3ccccc3)CC2)c1 (stereo not drawn),-1.7,1.7,-0.8,-1.1,i,1.5,5.3,.,
CCCCn1c(=O)c(C(=O)Nc2ccccc2N)c(O)c2ccccc21,-7.4,-32.8,-7.9,-15.1,i,11.6,-4.8,-15.6,
CC(C)c1ccc(C2NCc3ccccc3-n3cccc32)cc1 (stereo not drawn),6.1,-5.7,2.0,-2.6,i,-5.5,4.6,-1.9,
O=C(c1cn(Cc2ccccc2)c2ccccc12)N1CCCCC1,-12.0,17.6,4.2,3.3,i,-13.6,-5.6,.,
C[C@]12CC[C@@H](O)C[C@H]1CC[C@@H]1[C@@H]2CC[C@]2(C)C(=O)CC[C@@H]12,.,20.2,0.1,0.3,i,.,-12.4,-19.7,
COc1cc(C)cc2oc(=O)c(CC(=O)N3C[C@H]4C[C@@H](C3)c3cccc(=O)n3C4)c(C)c12,8.0,.,-3.2,-2.4,i,-3.0,-8.2,5.4,
